# Screening data (PubChem)
# Measles inh = inhibitors of measles virus growth in infected cells; z-score (no concentration beside the values); infected Vero cells, GFP fluorescence, 64 h; hits give low values; AID 745; actives 0.1% (n = 33,000);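 active means z-score under -3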;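 further: score is relative to mean and SD of the compound wells of a plate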
# Starred values were filed as active, the others as inactive; & = joins results of further samples. Only part of the results is shown; the hit share may differ from the screen's.
SMILES,Measles inh
COc1ccc(C(=O)CCN(C)C)cc1,-1.51
COCCOC(=O)c1ccc2nc(N)sc2c1,0.02
Cc1ccc(N=C2NC(=O)C(CC(=O)Nc3ccc(Br)cc3)S2)cc1 (centres undefined),1.45
O=C(Nc1ccc(-c2nc3ccccc3o2)cc1)c1ccccc1F,-1.17
COc1ccc(C2C=C(c3cccc(Br)c3)Nc3nnnn32)cc1 (centres undefined),0.18
COc1ccc(N=c2oc3ccc([N+](=O)[O-])cc3cc2C(=O)NC(C)=O)cc1,-0.06
O=CNC1CCCc2c1[nH]c1ccc(Br)cc21 (centres undefined),0.79
CC1CCN(C(=O)CSc2nc3c(c(=O)n2Cc2ccccc2)SC(C)C3)CC1 (centres undefined),-0.27
COC(=O)c1ccc(S(=O)(=O)c2ccc([N+](=O)[O-])cc2)cc1,-0.93
CCc1ccc(NC(=O)CSc2nccn2-c2ccc([N+](=O)[O-])cc2)cc1,0.37
CCN(CC)c1cc(Nc2ccccc2OC)c([N+](=O)[O-])c2nonc12,-1.11
Cc1nonc1OCCNCCNc1ccccc1[N+](=O)[O-],-0.4
CCN1CCN(C(=O)C2CCC(=O)N(c3ccc(OC)cc3)C2c2ccc(OC)c(OC)c2)CC1 (centres undefined),0.12
CC(C)Oc1ccc(C2N3CC4(C)CN2CC(C)(C3)C4=O)cc1 (centres undefined),1.65
COc1ccc(CC(=O)Nc2c3c(nn2-c2cc(C)cc(C)c2)CSC3)cc1,-0.98
C=CCN(c1ccccc1)C(C(=O)NC1CCCC1)c1ccccc1 (centres undefined),-1.21
CCc1ccc(N2C(=O)C3C4C=CC(C4)C3C2=O)cc1 (centres undefined),-0.38
CC(=O)NCCOc1c(C)cc(S(N)(=O)=O)cc1C,1.23
CC(C)Oc1ccc(NC(=O)CSc2nc3ccccc3s2)cc1,-0.07
Cc1cccc(N2CCN(S(=O)(=O)c3ccc4nc(-c5ccccc5)[nH]c4c3)CC2)c1C,0.2
CCOC(=O)c1ccc2nc(C)cc(Nc3ccc(N(C)C)cc3)c2c1,-0.89
Cc1ccc2cc3cc(C(=O)N4CCN(Cc5ccccc5)CC4)sc3nc2c1,-0.6
COc1ccc(C2C3=C(CC(C)(C)CC3=O)OC(N)=C2[N+](=O)[O-])cc1OC (centres undefined),0.21
COc1ccc(-n2nc(C(=O)N3CCOCC3)c3ccccc3c2=O)c(OC)c1,-0.51
COc1ccc(COC(=O)C2=C(C)NC3=C(C(=O)CCC3)C2c2ccc([N+](=O)[O-])cc2)cc1 (centres undefined),-0.46

# For convenience, part of the list above.
SMILES,Measles inh
COc1ccc(C2C3=C(CC(C)(C)CC3=O)OC(N)=C2[N+](=O)[O-])cc1OC (centres undefined),0.21
COc1ccc(-n2nc(C(=O)N3CCOCC3)c3ccccc3c2=O)c(OC)c1,-0.51
COc1ccc(COC(=O)C2=C(C)NC3=C(C(=O)CCC3)C2c2ccc([N+](=O)[O-])cc2)cc1 (centres undefined),-0.46

# The results go on:
SMILES,Measles inh
O=C(Cn1nc(C(F)(F)F)c2c1CCCC2)NCCN1CCOCC1,-1.26
COc1ccc(CNC(=O)C(C)C2Sc3ccccc3N(Cc3cc(C)ccc3C)C2=O)cc1 (centres undefined),0.43
Cc1cccc(-n2c(N)c(C#N)c3nc4ccccc4nc32)c1C,-2.09
O=C(NC1CCCCC1)C(c1ccc(Cl)cc1)N1CCOCC1 (centres undefined),-0.02
CCn1cc(C(=O)N2CC(C)CC(C)C2)c(=O)c2cc(S(=O)(=O)N3CCCCC3)ccc21 (centres undefined),1.48
COc1cc(C2C(=O)N(C3CCC(C)CC3)CC(=O)N2Cc2ccccc2)ccc1OC(C)C (centres undefined),1.93
O=C1C2ON(c3ccc(Cl)cc3)C(c3ccco3)C2C(=O)N1c1ccccc1 (centres undefined),-0.23
O=c1c2cc3ccccc3cc2[nH]c(=S)n1CC1CCCO1 (centres undefined),-0.59
COc1ccc2c(c1)C(C)=CC(C)(C)N2C(=O)CN1C(=O)CCC1=O,0.4
CCCCN(C)C(=O)c1nn(-c2ccc(C)cc2)c(=O)c2c1c1ccccc1n2C,-0.07
CCOC(=O)c1cnc2ccc(OCC)cc2c1Nc1ccc(OC)cc1,-0.11
CCCS(=O)(=O)N1CCC(C(=O)NC2CCCC(C)C2C)CC1 (centres undefined),-0.9
Cc1cccc(-c2nnc(N)s2)c1,0.59
CCOc1ccc(NC(=O)C2c3ccccc3C(=O)N(Cc3ccc(F)cc3)C2c2ccc(OC)cc2)cc1 (centres undefined),0.12
Cc1cc(N2C(=O)C3CC=CC(C)C3C2=O)ccc1N1C(=O)c2ccc(Cl)cc2C1=O (centres undefined),0.52
CCN(CC)CCNC(=O)c1cc(-c2ccc(Br)s2)nc2ccccc12,0.15
CS(=O)(=O)Nc1cccc(C2=NN(C(=O)c3ccco3)C(c3ccc(F)cc3)C2)c1 (centres undefined),0.28
CCN1C(=O)c2ccccc2Sc2ccc(C(=O)NCCc3ccc(Cl)cc3)cc21,1.04
Cc1ccc(-n2cc(-c3ccc(Cl)cc3)[nH]c2=S)cc1,-0.02
CCOC(=O)c1nn2c(C(F)(F)F)cc(-c3ccc(OC)cc3)nc2c1Cl,-0.22
O=C(CSc1nc2ccsc2c(=O)n1C1CCCCC1)N1CCN(c2ccccc2)CC1,0.86
CCCCNC(=O)c1ccc2c(=O)n(-c3ccccc3)c(=O)[nH]c2c1,0.17
COC(=O)c1c(NC(=O)Cn2nc(C(F)(F)F)cc2C)sc2c1CCC(C)C2 (centres undefined),-0.24
COC(=O)C1=C(N)N(c2ccc(Cl)cc2)C2=C(C(=O)CCC2)C1c1ccc(OC)cc1 (centres undefined),0.54
CCN(C(=O)c1ccc(NC(C)=O)cc1)c1ccccc1C,0.21

# Compounds listed so far that contain bromine:
SMILES,Measles inh
Cc1ccc(N=C2NC(=O)C(CC(=O)Nc3ccc(Br)cc3)S2)cc1 (centres undefined),1.45
COc1ccc(C2C=C(c3cccc(Br)c3)Nc3nnnn32)cc1 (centres undefined),0.18
O=CNC1CCCc2c1[nH]c1ccc(Br)cc21 (centres undefined),0.79
CCN(CC)CCNC(=O)c1cc(-c2ccc(Br)s2)nc2ccccc12,0.15

# Later entries.
SMILES,Measles inh
Cc1ccc(-c2coc3c(C)c4oc(=O)c5ccccc5c4cc23)cc1,-0.21
Cn1c2c(c(=O)n(C)c1=O)C(c1ccc(OCc3ccccc3)cc1)C1=C(CCCC1=O)N2 (centres undefined),-0.57
CC(C)(C)c1cc(Br)ccc1OCCCN1CCOCC1,-3.29*
CCOc1ccc(-n2c(=O)[nH]c3sc4c(c3c2=O)CCC4)cc1,-0.28
COC(=O)c1sc(-c2ccccc2)cc1NC(=O)c1ccc(S(=O)(=O)N2CCCCC2)cc1,0.19
O=C(NC1CC1)c1ccc(CNc2nc(=S)[nH]c3ccccc23)cc1,0.21
O=C(Nc1cccc(-c2nc3ccccc3s2)c1)c1ccc(Br)o1,-4.16*
Ic1ccc(-c2csc(Nc3ccc4c(c3)OCO4)n2)cc1,0.73
Cc1cccc(-n2c3nc(=O)[nH]c(=O)c-3cc3c(C)nn(-c4ccccc4)c32)c1C,-0.54
CCc1ccc(N(CC)c2ncnc3nc[nH]c23)cc1,-0.3
Cc1ccc(NC(=O)c2ccc3c(=O)n(CCc4ccccc4)c(=S)[nH]c3c2)cc1F,0.38
CC(=O)COc1ccc2c(C)c(Cc3ccccc3)c(=O)oc2c1,-0.52
Cc1ccc(S(=O)(=O)Nc2ccc(-c3csc(-c4ccccc4)n3)cc2)cc1,-0.87
CCOc1ccc(NS(=O)(=O)CC(C)C)cc1,0.23
CSc1ccc(-c2nc3ncccn3c2Nc2ccc3c(c2)OCO3)cc1,0.88
CSc1ccc(-c2nc3ccc(C)cn3c2Nc2ccc3c(c2)OCO3)cc1,-1.64
Cc1ccc(C)c(C(=O)c2ccccc2NC(=O)c2ccccn2)c1,-0.53
CCNc1nc(N)nc(Oc2ccc(C(=O)OCC)cc2)n1,0.4
CCN(c1ccccc1)c1nc2ccsc2c(=O)s1,-0.6
CCCC12CN3CC(C)(CN(C1)C3c1ccc(O)c(OC)c1)C2=O (centres undefined),-0.61
O=C(CSc1nc2ccsc2c(=O)n1-c1ccccc1)N1CCCC1,0.23
CC(C)CC1(C)NC(=S)N(c2ccccc2)N1 (centres undefined),-0.64
O=C1c2[nH]nc(-c3ccccc3)c2C(c2ccc3c(c2)OCO3)N1c1ccccc1 (centres undefined),-0.84
CCOC(=O)c1ccc(N2C(=O)CC(N3CCN(c4ccccc4Cl)CC3)C2=O)cc1 (centres undefined),-0.59
CCOc1cccc2cc(C(=O)Nc3ccccc3)c(=O)oc12,-0.1
# Other entries follow.
SMILES,Measles inh
Cc1ccccc1N1OC2C(=O)N(c3ccccc3)C(=O)C2C1c1ccc(N(C)C)cc1 (centres undefined),-0.06
CCOC(=O)c1cc2c(n(-c3ccc(C)cc3)c1=O)CC(C)(C)CC2=O,0.5
O=C(COc1ccc(-c2nnc(NCc3ccccc3)c3ccccc23)cc1)N1CCCCC1,-0.44
O=C(Nc1cccc(C(F)(F)F)c1)c1cc2c(=O)[nH]c3ccccc3c2s1,-1.14
O=C(c1cn(-c2ccccc2)nc1C12CC3CC(CC(C3)C1)C2)N1CCNCC1,0.01
O=C(CSc1nc2ccccc2c(=O)n1-c1ccccc1)Nc1ccc(Cl)cc1,0.52
COc1ccc(Oc2c(C(F)(F)F)oc3c(CN4CCCCC4)c(O)ccc3c2=O)cc1,0.8
CCN(CC)c1ccc2cc(-c3nnc(Nc4ccccc4)s3)c(=O)oc2c1,4.11
COc1cccc(NC(=O)CSc2nc3c([nH]c4ccccc43)c(=O)n2C)c1,-0.39
COC(=O)c1nn2c(C(F)(F)F)cc(-c3ccccc3)nc2c1Cl,0.52
Nc1ccccc1-c1nnc(SCc2ccccc2Cl)[nH]c1=O,-0.51
COc1ccc(COC(=O)C2=C(C)NC3=C(C(=O)CC(C)(C)C3)C2c2coc3ccc(Cl)cc3c2=O)cc1 (centres undefined),-1.63
COc1ccc(-c2nnc(-c3ccc(C)cc3)o2)cc1,0.53
Cc1c(Cl)cccc1Nc1nc(-c2cc3ccccc3oc2=O)cs1,-0.2
O=C(Nc1ccccc1I)C(C(F)(F)F)C(F)(F)F,-0.73
OCC1COc2ccccc2O1 (centres undefined),0.72
O=C(Nc1cc([N+](=O)[O-])ccc1Cl)c1cc(-c2ccccc2)nc2ccccc12,0.07
Cc1ccc(Cl)cc1NC(=O)CSCc1ccc(Cl)cc1,0.09
CCCCNc1ncc(C(C)=O)c2ccccc12,-0.8
O=C1CCCC2=C1C(c1ccc(F)cc1)C1=C(N2)c2ccccc2C1=O (centres undefined),-0.46
COc1ccc(OC)c(C2C3=C(Nc4c2c(=O)[nH]c(=O)n4C)c2ccccc2C3=O)c1 (centres undefined),1.07
CCCC1=C(C(=O)OCC)C(c2cc(OC)ccc2OC)n2ncnc2N1 (centres undefined),-0.78
O=C(Nc1ccc(-c2nc3cc(Cl)ccc3o2)cc1)c1ncn[nH]1,-0.78
CN(Cc1ccccc1)S(=O)(=O)c1cccs1,0.87
COc1cc(C)nc(NS(=O)(=O)c2ccc(C)cc2)n1,1.03&0.14

# Five of the entries above in order of the Measles inh value, high to low.
SMILES,Measles inh
CCN(CC)c1ccc2cc(-c3nnc(Nc4ccccc4)s3)c(=O)oc2c1,4.11
COc1ccc(-c2nnc(-c3ccc(C)cc3)o2)cc1,0.53
O=C1CCCC2=C1C(c1ccc(F)cc1)C1=C(N2)c2ccccc2C1=O (centres undefined),-0.46
O=C(Nc1ccc(-c2nc3cc(Cl)ccc3o2)cc1)c1ncn[nH]1,-0.78
O=C(Nc1cccc(C(F)(F)F)c1)c1cc2c(=O)[nH]c3ccccc3c2s1,-1.14

# (cont.)
SMILES,Measles inh
C(=Cc1ccccc1)Sc1ccc2ccccc2n1,-0.09
O=C(c1cccc(F)c1)N1CCCN(C(=O)c2cccc(F)c2)CC1,0.09
COc1ccc(NC(=O)C23CC4CC(CC(C4)C2)C3)cc1OC,0.07
Cc1c(-n2c(=O)c3ccccc3c3ccccc3c2=O)cccc1[N+](=O)[O-],-0.62
O=[N+]([O-])c1ccc(N2CCNCC2)cc1N1CCc2ccccc2C1,-0.93
CCOC(=O)c1sc(NC(=O)c2cc3nc(-c4ccc(OC)c(OC)c4)cc(C(F)(F)F)n3n2)nc1C,0.36
Cc1nc(N2CCC(C)CC2)c2c(C)c(C(=O)N3CCN(c4ccc(F)cc4)CC3)sc2n1,-0.45
O=C(O)c1cccc(N2CCCC2=O)c1,1.38
COc1ccc(C2SCCN2C(=O)c2ccc([N+](=O)[O-])cc2)cc1[N+](=O)[O-] (centres undefined),-0.45
CCN1C(=O)c2cccc3c(S(=O)(=O)NCc4ccccn4)ccc1c23,0.03
COc1ccc(/C(O)=C2\C(=O)C(=O)N(c3ccccn3)C2c2ccc(F)cc2)cc1 (centres undefined),0.58
COc1ccc(C(=O)Nc2ccc(S(=O)(=O)N3CCC(C)CC3)cc2)cc1Br,-0.55
Cc1sc(NC(=O)c2ccccc2)c(C#N)c1C,-0.21
O=C(Nc1ccccc1NC(=O)c1ccccc1)c1ccccc1,0.1
COc1ccc(-c2c3c(=O)n(C)c(=O)n(C)c3cn2Cc2ccc(Cl)cc2)cc1,1.27
CCOC(=O)c1ccc(NC(=O)C(=O)N2CCCC2)cc1,-0.61
O=C(NCc1cccnc1)c1cnc2n(c1=O)CCS2,-0.35
Cc1ccccc1-n1c(N)c(C(=O)Nc2ccccc2)sc1=S,-0.24
CCc1ccccc1N1C(=O)c2cccnc2C1=O,-0.47
CCc1cccc(C)c1NC(=O)c1cc(S(=O)(=O)NCCc2ccc(Cl)cc2)ccc1F,-0.89
Clc1ccc2[nH]c3nc4ccccc4nc3c2c1,0.66
COC(=O)CSc1nnc(-c2ccc3c(c2)OCO3)n1C,0.08
CCOc1ccc(NC(=O)CSc2nccn2-c2cc(C)cc(C)c2)cc1,-0.86
Cc1cccc(NC2=NC(C)(C)N=C(N)N2)c1C,0.83
COC(=O)C1(C(F)(F)F)N=C2C(Cl)=CC(Cl)=CN2C(c2ccc(F)cc2)=N1 (centres undefined),-0.37
Cc1c(C(=O)N2CCCC2)oc2ccc(S(=O)(=O)N3CC(C)CC(C)C3)cc12 (centres undefined),1.9
O=C(c1cccc(Br)c1)N1CCN=C1SCc1ccccc1F,0.13
O=C1CCCN2N=C(SCC(=O)N3CCCc4ccccc43)SC2=N1,-0.43

# Compounds from the list above containing a cyano group, in the order listed:
SMILES,Measles inh
Cc1cccc(-n2c(N)c(C#N)c3nc4ccccc4nc32)c1C,-2.09
Cc1sc(NC(=O)c2ccccc2)c(C#N)c1C,-0.21
